# High-throughput results: PubChem, National Center for Advancing Translational Sciences (NCATS)
# D2 PAM: positive allosteric modulators of human D2 dopamine receptor; 360,000 compounds, 0.23% hits; potentiation, % (no concentration beside the values); DiscoveRx D2 beta-arrestin cells, luminescence, 90 min; 100% = 57 uM dopamine signal; active = potentiation of 50% or more; inconclusive = 30% to 50%; inactive = 30% or less;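 note: compound concentration not given in the record; tested on top of an EC20 dose of dopamine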
# Target sequence (P14416 whole entry, looked up): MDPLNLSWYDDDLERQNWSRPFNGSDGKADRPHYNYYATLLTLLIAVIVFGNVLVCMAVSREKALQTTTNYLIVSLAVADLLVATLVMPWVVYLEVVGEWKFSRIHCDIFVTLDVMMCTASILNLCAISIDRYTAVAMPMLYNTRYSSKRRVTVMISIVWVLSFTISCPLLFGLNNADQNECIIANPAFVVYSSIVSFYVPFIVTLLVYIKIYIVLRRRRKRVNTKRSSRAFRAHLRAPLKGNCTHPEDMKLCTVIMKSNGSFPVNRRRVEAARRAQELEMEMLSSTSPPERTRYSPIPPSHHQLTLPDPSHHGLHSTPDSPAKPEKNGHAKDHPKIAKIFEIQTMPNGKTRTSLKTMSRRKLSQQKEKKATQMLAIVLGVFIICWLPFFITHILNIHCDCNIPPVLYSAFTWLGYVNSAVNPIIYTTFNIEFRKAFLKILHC
#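 PathHunter D2 cells, attached overnight at 37 deg C, received compound in DMSO plus dopamine at EC20 (50 nM final) for 90 min at 37 deg C. Beta-arrestin recruitment was read as luminescence after 1 h with detection reagent at ambient temperature.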
# gsp agonist: agonists of gsp mutant (McCune-Albright syndrome); 340,000 compounds, 0.13% hits; gsp mutant cells, cAMP HTRF, 30 min; control for the full effect not named in the record; AID 624287; Potency, µM (doses to about 76.9 µM), for the others: at the top dose activation (cAMP increase), hits mostly activators; active = well fitted activation curve with a large enough effect; inconclusive = small, poorly fitted or top-dose-only effect, or another doubt; inactive = no such curve, though single readings can be large or run the other way; cell line not stated here;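 note: phosphodiesterase inhibitor Ro 20-1724 added with compounds to block cAMP breakdown; potency is the fitted concentration of half-maximal effect; nearly all actives have a fitted effect of over 60% in size; about a fifth of the inactives were tested at one dose only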
#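 Cells stably selected in G418 were plated at 2000/well, grown 16-24 hr, then given compounds in DMSO with the PDE inhibitor […] (300 uM solution added) for 30 min at 37C; cAMP was read by HTRF.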
# Six1-Eya2 blk: Six1/Eya2 interaction inhibition; 360,000 compounds, 0.56% hits; AlphaScreen GST-Six1/His-Eya2 binding, biochemical; stronger effect = lower value; control for the full effect not named in the record; Q15475+O00167; activity change, % (no concentration beside the values); in the data active = activity change below about -65%; inconclusive = about -30% to -65%; inactive = above about -30%; note: % is set by controls: 0 for no effect and ±100 for the full control effect
#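 AlphaScreen luminescence read after one hour at 37 °C in darkness. Pin-transferred compounds met GST-Six1 and His-Eya2 protein (5X stock 250 nM/500 nM) plus glutathione donor and Ni-chelate acceptor beads (5X, 50 ug/mL).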
# CtBP-E1A inh: CtBP/E1A binding inhibition; 340,000 compounds, 0.49% hits; activity change, % (test concentration not listed); AlphaScreen GST-E1A/His-CtBP binding, 1536-well; stronger effect = lower value; control for the full effect not named in the record; in the data active means activity change below about -65%; inconclusive means about -30% to -65%; inactive means above about -30%; note: % is set by controls: 0 for no effect and ±100 for the full control effect
#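 AlphaScreen with 125 nM GST-E1A and 125 nM His-CtBP (5X stocks) in Tris pH 8.0, 300 mM NaCl, BSA, Tween 20, TCEP. Compounds preincubated 2 h at 37 deg C, then glutathione donor/nickel acceptor beads added for 1 h at 37 deg C in dark.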
# gsp antagonist: antagonizes gsp, the McCune-Albright syndrome mutation; Potency, µM (highest dose often 76.9 µM), for inactives: at the highest dose activity change, negative = inhibition, usual class: inhibitors; gsp-mutant cells, cAMP HTRF, 30 min; control for the full effect not named in the record; 340,000 compounds, 0.4% hits; active = falling curve of any shape with a large fitted effect; inconclusive = falling curve, mostly with a smaller effect; inactive = flat or rising curve; cell line not stated here;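 note: intracellular cAMP measured with PDE inhibitor Ro 20-1724 present during compound exposure; potency is the fitted concentration of half-maximal effect; % is set by controls: 0 for no effect and ±100 for the full control effect; nearly all actives have a fitted effect of over 65% in size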
#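 HTRF cAMP read-out (cAMP-d2 plus anti-cAMP antibody-K in lysis buffer, 30 min RT). Before lysis, cells are exposed to compounds with […] for 30 min at 37C in DPBS containing Ca/Mg, BSA and Tween 20.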
# D2 agonist: human D2 receptor agonism in beta-arrestin assay | AID 624465 | P14416 | 360,000 compounds, 0.084% hits | activation, % (test concentration not listed) | DiscoveRx PathHunter D2 beta-arrestin, luminescence, 90 min; 100% = 57 uM dopamine signal; in the data active = activation above about 40%; inconclusive = about 15% to 40%; inactive = below about 15%; note: compound concentration not given in the record; the text of the record calls up to 30% inactive
#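 DiscoveRx PathHunter D2 beta-arrestin cells (2,100/well) attached overnight, then compound-stimulated 90 min at 37 C in HBSS/10 mM HEPES/0.1% Tween-20 buffer; beta-galactosidase complementation read by luminescence after 1 h at ambient temperature. Dopamine 57 uM final (EC100) as control.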
# * marks the source's active call; other numbers are inactive results; u = inconclusive; x = not tested or not shown; [ ] = dose if it differs, or a comment.
SMILES,D2 PAM,gsp agonist,Six1-Eya2 blk,CtBP-E1A inh,gsp antagonist,D2 agonist
CNC(=O)N(O)C1N(/N=C/c2ccc(N(C)C)cc2)C(=S)SC1(C)C (stereo not given),-2.4,u,0.4,0.2,-6.8%,3.1
N#Cc1c(C#N)c(-c2ccccc2)n(-c2ccc(C(=O)O)cc2)c1N,0.6,8.5%,-2.5,-1.4,-12.4%,2.6
CC(=O)C[C@@H](O)CC(=O)[C@@H]1OC(=O)CCCCC/C=C/Cc2ccccc21,-0.6,x,-3.9,-7.6,-3.9%,-4.9
Nc1c(NCCCN2CCOCC2)c2ccccc2oc1=O,-8.4,1.3%,-5.1,-5.9,-3.6%,-2.5
O=C(NCc1ccco1)c1cccc2c1C(=O)c1ccc(N3CCCC3)cc1S2(=O)=O,8.2,10.2%,-5.8,0.9,-17.0%,6.3
Cc1ccc(S(=O)(=O)N2CCCOC2CNC(=O)C(=O)NCc2ccco2)cc1 (stereo not given),-1.3,-12.1%,-2.0,3.6,-7.1%,1.6
Cc1nn(C)c(C)c1NC(=O)CCSc1nc(-c2ccco2)cc(C(F)(F)F)n1,-9.4,7.9%,-4.9,-1.4,-3.6%,-2.3
COC(=O)c1sc(S(=O)(=O)N2CCCCC2)c(C(=O)OC)c1C,-7.0,-6.3%,-5.0,-4.0,u,-2.4
O=C(Nc1ccc(Cl)c(S(=O)(=O)N2CCOCC2)c1)c1ccccc1-c1ccc(C(F)(F)F)cc1,7.9,2.1%[15.4 µM],-4.0,5.5,8.4%,-1.1
C=CCn1c(SCC(=O)Nc2sccc2C(N)=O)nc2ccccc2c1=O,-6.4,17.6%,-1.4,-2.7,-5.0%,-2.0
O=C1CC(c2ccccc2Cl)CC(O)=C1C=NCCCO (stereo not given),-17.1,-6.7%,11.3,x,5.5%,1.1
COc1ccccc1OC(=O)c1ccc(SC)cc1OC,-9.2,5.5%,7.2,7.0,-18.7%,-2.2
COc1ccc(-c2cccc(C(=O)Nc3ccc(C)cc3)c2)cc1,-11.3,u,0.1,8.5,14.1%,0.0
C=C(C)COc1ccc(-c2ncncc2-c2ccccc2OC)c(O)c1,-13.9,-40.9%[inhibitor][15.4 µM],7.0,0.0,-12.2%,1.3
CCc1ccccc1NC(=O)N1CCC(NC(=O)C(Cc2ccc(OC)c(OC)c2)NC(C)=O)CC1 (stereo not given),-8.6,-35.0%,0.9,11.1,7.6%,-2.2
COc1ccc(CCC(=O)Nc2sccc2C#N)cc1,-4.0,-1.5%,2.4,1.6,2.7%,-0.8
Cc1cccc(C(=O)NC(=S)Nc2ccccc2C(=O)O)c1,4.8,u,-8.1,-7.2,-12.6%,-1.1
Clc1ccc(N2O[C@H]3C=C[C@@H]2C3)nc1,-2.3,x,-4.0,-7.9,x,11.3
CCCCn1c(N)c(C(=S)NC(=O)CC(C)(C)C)c(=O)n(C)c1=O,-4.3,-17.5%,-2.7,-2.1,u,-6.6
COc1ccc(OC)c(-c2nc(C(=O)NCC3CCCO3)cc3c2[nH]c2ccccc23)c1 (stereo not given),-78.1,x,-8.8,-18.7,u,-4.0
COc1ccc(NC(=O)N2CCC(CO)(CC3CCCCO3)CC2)c(OC)c1 (stereo not given),1.1,4.3%[15.4 µM],-4.4,1.0,1.2%,-5.3
Cc1noc(C)c1C(=O)N1CCC1(C)C(=O)NS(=O)(=O)c1ccccc1Cl (stereo not given),-1.2,x,3.8,-3.2,x,-3.5
CCCCN1C2CCCC1CC(NC(=O)C1CCCCC1)C2 (stereo not given),-4.2,5.4%,11.2,3.5,13.5%,-0.9
NS(=O)(=O)c1ccc(CNC(=O)Cc2cccs2)cc1,0.1,29.4%,-13.9,-6.4,-4.1%,3.9
O=C(CCn1c(=O)[nH]c2ccccc2c1=O)N1CCN(c2ccc(Cl)cc2)CC1,-5.3,-32.9%,8.5,1.7,-1.3%,-0.3

# Reprinted from the part before: 3 entries; new compounds follow.
SMILES,D2 PAM,gsp agonist,Six1-Eya2 blk,CtBP-E1A inh,gsp antagonist,D2 agonist
CCCCN1C2CCCC1CC(NC(=O)C1CCCCC1)C2 (stereo not given),-4.2,5.4%,11.2,3.5,13.5%,-0.9
NS(=O)(=O)c1ccc(CNC(=O)Cc2cccs2)cc1,0.1,29.4%,-13.9,-6.4,-4.1%,3.9
O=C(CCn1c(=O)[nH]c2ccccc2c1=O)N1CCN(c2ccc(Cl)cc2)CC1,-5.3,-32.9%,8.5,1.7,-1.3%,-0.3
CCN=C1SC(CC(=O)NCCc2ccc(OC)c(OC)c2)C(=O)N1CC (stereo not given),-9.7,1.1%,10.9,-0.1,6.4%,1.2
CC(=O)c1cccc(NC(=O)CN(c2cccc(F)c2)S(C)(=O)=O)c1,-5.7,u,-0.7,5.5,1.4%,-4.3
CCCc1nnc2n1N=C(c1ccc([N+](=O)[O-])cc1)CS2,1.4,2.9%[15.4 µM],-20.0,7.4,-2.2%,2.6
Cc1cc(C)n(-c2c(C)[nH]c3ccccc23)n1,2.6,-14.0%[15.4 µM],-9.6,-22.2,9.2%,-3.2
Cc1cccc(C(=O)NCc2nnc(SC(C)C(=O)Nc3nnc(C)s3)n2C)c1 (stereo not given),-6.7,-8.2%[15.4 µM],18.0,-16.9,0.3%,-5.2
Cc1ccc(C)c(OCC(=O)N(C)CC(=O)Nc2ccc(Cl)c(C(F)(F)F)c2)c1,-7.4,-2.3%,-3.1,0.0,3.1%,-3.5
C/C(=N\NC(N)=O)c1ccc(Cl)cc1,-8.0,-38.7%[inhibitor],0.2,6.0,22.8%,-0.7
CC(NC(=S)Nc1ccc(F)cc1)c1ccccc1 (stereo not given),5.8,-12.5%[15.4 µM],2.6,11.7,1.5%,2.4
O=S(=O)(c1cccc(-c2nnc(SCc3ccc(Cl)cc3)o2)c1)N1CCCCC1,27.3,2.6%,-7.2,5.5,-1.8%,-3.9
O=C1C(Cl)=C(NC(=O)c2ccccc2)C(=O)C(Cl)=C1NC(=O)c1ccccc1,-7.2,6.4%[15.4 µM],-72.6*,-11.2,u,-3.5
COc1cc2c(cc1NC(=O)c1cccc(Br)c1)CCCC2,-20.1,-29.1%,13.6,22.1,u,-2.0
CCCNC(=O)COc1coc(CN2CCN(c3ccccc3OC)CC2)cc1=O,-8.1,16.5%,5.6,x,-3.5%,1.4
CCOc1ccc(OCC(=O)Nc2ccc(S(=O)(=O)Nc3cc(C)nc(C)n3)cc2)cc1,-24.8,-10.1%,-2.6,-4.8,-7.3%,1.2
CCN(Cc1ccncc1)C(=O)CCc1nnc(CCC2CCCCC2)o1,-1.9,31.2%,8.1,8.1,-2.0%,-1.5
O=C(CSc1nccc(=O)[nH]1)Nc1cccc2ccccc12,4.4,-2.6%[15.4 µM],2.2,0.4,-2.7%,0.9
CCOC(=O)C1(Cc2ccccc2C(F)(F)F)CCN(C2CCSC2)CC1 (stereo not given),-13.9,4.7%[15.4 µM],-7.0,-8.0,2.3%,-0.9
Cc1cc2ncn(CC3CC3(Cl)Cl)c2cc1C (stereo not given),-8.5,2.0%[15.4 µM],4.5,21.0,-30.5%,-2.0
O=c1c2cc(Br)ccc2nc(-c2ccc(Cl)cc2)n1O,-6.6,-1.8%[15.4 µM],-2.8,2.4,-9.0%,-3.0
COc1ccccc1NS(=O)(=O)c1cc(C(=O)N2CCCCCC2)ccc1C,-3.1,-0.7%[15.4 µM],13.8,4.3,-11.4%,-1.5
Cc1ccc(C(=O)c2coc3cc([N+](=O)[O-])c(O)c([N+](=O)[O-])c23)cc1,-6.5,-68.0%[inhibitor],u,-1.6,35.5µM*,-2.3
C=CCN1C(=O)C(CC(=O)O)SC1=Nc1cccc([N+](=O)[O-])c1 (stereo not given),-7.8,12.1%[15.4 µM],-14.1,9.5,-2.3%,-3.9
Cc1ccc(NS(=O)(=O)c2c(C(=O)N3CCOCC3)c(C)n(C)c2C)cc1C,-6.7,-24.8%,0.5,1.6,0.0%,0.9
CCOC(=O)c1sc(NC(=O)CSc2nnc(C(C)C)n2C)nc1C,7.6,-37.0%[inhibitor],-1.8,3.0,2.4%,-0.7
C#CCOCCOCCOCCNc1nc(N2CCN(C(=O)CCCCCCCCCCNC(=O)[C@H](CCCCN)n3cc(CCO)nn3)CC2)nc(N2CCN(C(=O)CCCCCCCCCCNC(=O)[C@H](CCCCN)n3cc(CCCC(=O)O)nn3)CC2)n1,-7.5,x,-0.3,-4.0,7.5%,-4.7
Cc1ccc(-c2nn3c(C)nnc3s2)cc1NC(=O)c1cccs1,-8.4,8.7%,-2.8,-9.8,0.8%,0.4
# Additional results.
SMILES,D2 PAM,gsp agonist,Six1-Eya2 blk,CtBP-E1A inh,gsp antagonist,D2 agonist
COc1cc(Cl)c(CN2CCCC(CO)(Cc3ccccc3)C2)cc1OC (stereo not given),-10.4,-67.3%[inhibitor],-2.5,-0.2,3.8%,-0.8
COC(=O)CN=Cc1c(C)[nH]n(-c2ccccc2)c1=O,2.0,-2.7%[15.4 µM],22.4,1.1,7.2%,-0.4
CSc1nc2ccccc2n1Cc1cccc(F)c1,-0.7,1.9%,14.8,5.7,7.0%,-1.9
COc1ccc(CN2CCCC(C(=O)Nc3cccc(-n4cccn4)c3)C2)c(F)c1 (stereo not given),-36.4,7.1%,-9.6,-12.0,-8.1%,-2.5
CCCC(=O)NNC(=O)c1c(O)c2ccccc2[nH]c1=O,-1.5,15.8%[15.4 µM],8.6,x,4.4%,1.2
CCN(CCn1cccn1)Cc1nc(-c2ccc(C(=O)OC)cc2)no1,-3.0,8.9%[15.4 µM],8.1,-0.5,-4.1%,-4.7
Cc1ccccc1OCC(=O)OCC(=O)NC1CCCCCC1,-11.1,8.5%[15.4 µM],2.8,6.2,5.6%,-2.0
CSc1ccc2c(c1)C(N1CCN(C)CC1)Cc1ccc(F)cc1S2 (stereo not given),-12.4,23.9%,-23.9,x,3.8%,-0.3

# Part of the list above, limited to gsp antagonist:
SMILES	gsp antagonist
COc1ccccc1OC(=O)c1ccc(SC)cc1OC	-18.7%
Cc1ccc(C)c(OCC(=O)N(C)CC(=O)Nc2ccc(Cl)c(C(F)(F)F)c2)c1	3.1%
COC(=O)CN=Cc1c(C)[nH]n(-c2ccccc2)c1=O	7.2%
COC(=O)c1sc(S(=O)(=O)N2CCCCC2)c(C(=O)OC)c1C	u
C=CCN1C(=O)C(CC(=O)O)SC1=Nc1cccc([N+](=O)[O-])c1 (stereo not given)	-2.3%

# Rows were taken by chance (roughly 1.4% active in at least one column).
